# Vaccinia inh – Vaccinia orthopox stage-specific inhibition. Vaccinia-infected cells, mCherry/Venus stage reporter fluorescence; stronger effect = lower value; some inactives read as strong as hits. activity change (mCherry), % (no concentration beside the values). actives 0.01% (n = 89,000). AID 1053133;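 active means mCherry past -33% and 40 or more points under the early reporter, replicates agreeing; inconclusive means past -33% without that gap or agreement; tested in A549 cells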;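 further: scaled between vehicle wells and reference inhibitor wells; 23 nL library stock went into each well; one replicate is shown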
# Vaccinia inh Venus – second read-out of Vaccinia inh, no call of its own (marks repeat the call); activity change (Venus), %; measured here: Venus reporter, other viral stage;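 negative = less Venus signal; first of two replicates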
# * marks the source's active call; other numbers are inactive results; ? = inconclusive; . = not tested or not shown.
Structure,Vaccinia inh,Vaccinia inh Venus
O=C(Cc1ccccc1)N[C@@H]1CC[C@@H](CC(=O)N2CCCCC2)O[C@@H]1CO,4,1
C/C=C/c1cccc(-c2nc(C(=O)NCc3ccccn3)cc3c2[C@H](CCO)N([S@@](=O)C(C)(C)C)C3)c1,5,18
CCCC#Cc1ccc2c(c1)O[C@H](CN(C)C(=O)Nc1ccccc1F)[C@H](C)CN([C@H](C)CO)S2(=O)=O,?,.
C[C@@H]1CN([C@@H](C)CO)C(=O)c2cc(NS(=O)(=O)c3ccccc3)ccc2O[C@@H](C)CCCCO[C@H]1CN(C)Cc1ccc(C(F)(F)F)cc1,?,.
CO[C@H]1CN(C)C(=O)c2cc(NC(=O)c3ccccc3)ccc2OC[C@H](C)NC[C@H]1C,2,7
O=C(C1CCC1)N1CC2(C1)[C@H](c1ccccc1)[C@H](CO)N2C(=O)c1ccccn1,9,7
C[C@H]1CN([C@@H](C)CO)C(=O)c2cc(C#CC3CC3)cnc2O[C@H]1CN(C)C(=O)CC1CC1,5,4
COc1ccc2c3c(n(C)c2c1)[C@@H](CO)N(C(=O)Nc1ccc(F)cc1)CC31CCN(S(=O)(=O)c2cccc(C)c2)CC1,-19,-14
COc1ccc(S(=O)(=O)N(C)C[C@@H]2OCCCC[C@@H](C)Oc3ccc(NC(=O)C4CCCCC4)cc3C(=O)N([C@@H](C)CO)C[C@@H]2C)cc1,-12,-2
C[C@@H]1CN([C@H](C)CO)C(=O)Cc2cc(NC(=O)CCC(F)(F)F)ccc2O[C@H]1CN(C)Cc1ccccc1,-14,-13
CC(C)NC(=O)N(C)C[C@H]1Oc2ccc(NC(=O)Nc3ccc4c(c3)OCO4)cc2C(=O)N([C@H](C)CO)C[C@@H]1C,14,5
C[C@H]1CN([C@@H](C)CO)S(=O)(=O)c2ccc(C3=CCCCC3)cc2O[C@H]1CN(C)S(C)(=O)=O,-33,-33
Cc1noc(C)c1S(=O)(=O)Nc1ccc2c(c1)C(=O)N([C@H](C)CO)C[C@H](C)[C@@H](CN(C)S(=O)(=O)c1ccc(Cl)cc1)O2,3,1
CCNC(=O)C[C@@H]1CC[C@@H]2[C@H](COc3ccc(NC(=O)c4ccc(F)c(F)c4)cc3C(=O)N2C)O1,7,-2
Cc1noc(C)c1NC(=O)N(C)C[C@@H]1Oc2ccc(NC(=O)NC(C)C)cc2C(=O)N([C@@H](C)CO)C[C@H]1C,-7,-9
C[C@@H]1CN([C@H](C)CO)S(=O)(=O)c2ccc(C#CCN(C)C)cc2O[C@H]1CN(C)C(=O)C1CCCCC1,-15,-8
C[C@@H]1CN([C@H](C)CO)C(=O)c2cc(/C=C/c3ccccc3)cnc2O[C@@H]1CN(C)C(=O)c1cccnc1,1,-12
Cc1noc(C)c1NC(=O)Nc1ccc2c(c1)CC(=O)N([C@@H](C)CO)C[C@@H](C)[C@@H](CN(C)S(=O)(=O)c1ccccc1)O2,16,19
C[C@@H]1CCCCO[C@H](CN(C)C(=O)NC2CCCCC2)[C@@H](C)CN([C@H](C)CO)C(=O)c2cc(NS(=O)(=O)c3ccccc3)ccc2O1,13,-1
C[C@H](CO)N1C[C@H](C)[C@H](CN(C)CC2CC2)Oc2cc(/C=C/c3ccccc3)ccc2S1(=O)=O,-20,-14

# Reprinted at random: 3 records from the list, in no set order.
Structure,Vaccinia inh,Vaccinia inh Venus
C[C@@H]1CN([C@H](C)CO)S(=O)(=O)c2ccc(C#CCN(C)C)cc2O[C@H]1CN(C)C(=O)C1CCCCC1,-15,-8
Cc1noc(C)c1NC(=O)N(C)C[C@@H]1Oc2ccc(NC(=O)NC(C)C)cc2C(=O)N([C@@H](C)CO)C[C@H]1C,-7,-9
COc1ccc2c3c(n(C)c2c1)[C@@H](CO)N(C(=O)Nc1ccc(F)cc1)CC31CCN(S(=O)(=O)c2cccc(C)c2)CC1,-19,-14

# Further results.
Structure,Vaccinia inh,Vaccinia inh Venus
O=C(C[C@H]1CC[C@@H]2[C@H](COC[C@@H](O)CN2C(=O)Nc2ccc(Cl)c(Cl)c2)O1)NCc1ccc(Cl)c(Cl)c1,?,.
O=C1CNC[C@@H]2[C@H](c3ccc(C4=CCCCC4)cc3)[C@@H](CO)N12,-17,-9
C[C@H](CO)N1C[C@H](C)[C@H](CN(C)C(=O)Nc2ccc3c(c2)OCO3)OCCCC[C@H](C)Oc2ccc(NS(=O)(=O)c3ccccc3)cc2C1=O,-10,-5
CO[C@H]1CN(C)C(=O)c2cc(NC(=O)Nc3ccc(Cl)cc3)ccc2OC[C@@H](C)NC[C@H]1C,-24,-14
C[C@H](CO)N1C[C@H](C)[C@H](CN(C)S(C)(=O)=O)Oc2ccc(NC(=O)Nc3ccc(F)cc3)cc2C1=O,9,-5
CC(=O)N(C)C[C@@H]1Oc2ncc(C#Cc3ccncc3)cc2C(=O)N([C@@H](C)CO)C[C@H]1C,18,9
CCCNC(=O)Nc1ccc2c(c1)C(=O)N(C)C[C@@H](OC)[C@H](C)CN(C(=O)c1ccccc1F)[C@H](C)CO2,-1,8
CO[C@@H]1CC[C@@H]2CCN(C)C(=O)[C@H](C)[C@H](OC)CN(C)C(=O)c3cc(C#N)ccc3OC[C@H]1O2,8,7
CN1C(=O)c2cc(NC(=O)Cc3cccs3)ccc2OC[C@@H]2O[C@@H](CC(=O)NCCc3ccncc3)CC[C@@H]21,4,8
C[C@@H]1CN([C@H](C)CO)C(=O)c2cc(NC(=O)Nc3ccc(F)cc3)ccc2O[C@@H](C)CCCCO[C@@H]1CN(C)C(=O)C1CCCCC1,-8,-5
C[C@@H]1CN([C@@H](C)CO)C(=O)c2cc(NC(=O)C3CCCCC3)ccc2O[C@H]1CN(C)C(=O)Nc1ccc(C(F)(F)F)cc1,-4,2
C[C@@H]1CCCCO[C@@H](CN(C)C(=O)Cc2ccccc2)[C@H](C)CN([C@@H](C)CO)C(=O)c2cc(NC(=O)Nc3ccc4c(c3)OCO4)ccc2O1,-4,-6
CO[C@H](CN(C)Cc1ccc(-c2ccccn2)cc1)[C@H](C)CN(C(=O)Nc1ccc(F)cc1)[C@H](C)CO,-10,-9
COc1ccc(NC(=O)N(C)C[C@H]2Oc3c(NC(=O)NC(C)C)cccc3C(=O)N([C@H](C)CO)C[C@H]2C)cc1,4,1
Cc1noc(C)c1S(=O)(=O)N(C)C[C@H]1OCc2cn(nn2)CCCC(=O)N([C@@H](C)CO)C[C@@H]1C,12,13
COCc1cn(CC[C@@H]2CC[C@H](NC(=O)Nc3ccc4c(c3)OCO4)[C@H](CO)O2)nn1,8,10
CCCNC(=O)C[C@@H]1C[C@H]2c3cc(NC(=O)NC4CCCC4)ccc3O[C@H]2[C@H](CO)O1,-2,4
COc1ccc(S(=O)(=O)N(C)C[C@@H]2OCCCC[C@H](C)Oc3ccc(NC(=O)C4CCCCC4)cc3C(=O)N([C@@H](C)CO)C[C@@H]2C)cc1,?,.
C[C@@H]1CN([C@@H](C)CO)C(=O)c2cccc(NC(=O)Nc3ccccc3)c2O[C@H]1CN(C)C(=O)Nc1ccc2c(c1)OCO2,5,10
COc1ccccc1C#Cc1cnc2c(c1)C(=O)N([C@@H](C)CO)C[C@@H](C)[C@@H](CN(C)S(=O)(=O)c1cn(C)cn1)O2,-13,-11

# A stretch of the results above, as a working copy:
Structure,Vaccinia inh,Vaccinia inh Venus
O=C(Cc1ccccc1)N[C@@H]1CC[C@@H](CC(=O)N2CCCCC2)O[C@@H]1CO,4,1
C/C=C/c1cccc(-c2nc(C(=O)NCc3ccccn3)cc3c2[C@H](CCO)N([S@@](=O)C(C)(C)C)C3)c1,5,18
CCCC#Cc1ccc2c(c1)O[C@H](CN(C)C(=O)Nc1ccccc1F)[C@H](C)CN([C@H](C)CO)S2(=O)=O,?,.

# Reformatted: entries from further up.
# The line under a structure holds: Vaccinia inh, Vaccinia inh Venus
CC(=O)N(C)C[C@@H]1Oc2ncc(C#Cc3ccncc3)cc2C(=O)N([C@@H](C)CO)C[C@H]1C
→ 18, 9
CCCNC(=O)Nc1ccc2c(c1)C(=O)N(C)C[C@@H](OC)[C@H](C)CN(C(=O)c1ccccc1F)[C@H](C)CO2
→ -1, 8

# Next records follow:
Structure,Vaccinia inh,Vaccinia inh Venus
O=C(C[C@@H]1C[C@H]2c3cc(NC(=O)NC4CCCC4)ccc3O[C@H]2[C@@H](CO)O1)NCC1CC1,18,17
O=C(C1CCCCC1)N1CC(=O)N2[C@H](CO)[C@@H](c3ccc(C#Cc4cccc(F)c4)cc3)[C@H]2C1,?,.
C[C@H](CO)N1C[C@H](C)[C@@H](CN(C)S(=O)(=O)c2cn(C)cn2)Oc2ccc(NS(=O)(=O)c3ccc(F)cc3)cc2C1=O,4,8
CCC(=O)N[C@@H]1CC[C@@H](CCn2cc(C3CC3)nn2)O[C@H]1CO,0,3
CO[C@H]1CN(C)C(=O)c2ccc(NC(=O)c3cccc(F)c3)cc2OC[C@H](C)N(CC2CC2)C[C@H]1C,10,9
O=C(N[C@H]1CC[C@@H](CC(=O)N2CCCCC2)O[C@H]1CO)c1ccc2c(c1)OCO2,1,-1
CCNC(=O)C[C@@H]1CC[C@H]2[C@@H](COc3ccc(NC(=O)c4ccc(F)cc4)cc3C(=O)N2C)O1,-5,-9
C[C@@H]1CCCCO[C@@H](CN(C)C(=O)CCCN(C)C)[C@@H](C)CN([C@H](C)CO)C(=O)c2cc(NS(=O)(=O)c3ccccc3)ccc2O1,25,10
O=C(CCN1CCCCC1)N[C@H]1CC[C@@H](CCn2cc(-c3ccccc3)nn2)O[C@@H]1CO,11,21
COCC#Cc1cnc2c(c1)C(=O)N([C@@H](C)CO)C[C@H](C)[C@@H](CN(C)Cc1ccccc1F)O2,5,4
COc1ccccc1NC(=O)N1CC(=O)N2[C@H](C1)[C@H](c1ccc(C#Cc3ccccc3)cc1)[C@@H]2CO,?,.
Cc1noc(C)c1NC(=O)N(C)C[C@@H]1Oc2ccc(NC(=O)Nc3ccc(C(F)(F)F)cc3)cc2C(=O)N([C@@H](C)CO)C[C@@H]1C,2,10
CCCNC(=O)[C@H]1[C@H](CO)[C@H]2Cn3c(ccc(/C=C/c4ccccc4)c3=O)[C@H]2N1CC1CC1,-26,-17
C[C@H](CO)N1C[C@H](C)[C@H](CN(C)Cc2ccccc2)Oc2c(NC(=O)C3CCOCC3)cccc2C1=O,1,1
CCCNC(=O)N1C[C@H]2[C@@H](c3ccccc31)[C@H](CO)N2C(=O)NCCC,7,5
CC(=O)N[C@H]1C=C[C@@H](CC(=O)NCc2ccc(Cl)cc2)O[C@@H]1CO,6,8
Cc1ccc(-c2cnc3c(c2)C(=O)N([C@H](C)CO)C[C@@H](C)[C@@H](CN(C)C(=O)Cc2cccnc2)O3)cc1,9,0
O=C(C[C@H]1C=C[C@H](NS(=O)(=O)c2ccc(F)cc2)[C@H](CO)O1)NCCN1CCCCC1,-3,8
C[C@@H]1CN([C@@H](C)CO)C(=O)c2cc(-c3ccccc3F)cnc2O[C@H]1CN(C)C(=O)c1ccccn1,24,17
O=C(C[C@H]1C=C[C@H](NC(=O)c2cccc(F)c2)[C@@H](CO)O1)NCc1ccccc1,-5,6

Structure,Vaccinia inh,Vaccinia inh Venus
CCC(=O)Nc1ccc2c(c1)C(=O)N(C)C[C@H](OC)[C@H](C)CN(C(=O)Cc1cccnc1)[C@@H](C)CO2,12,7
O=C(Nc1nccs1)[C@@H]1[C@@H](CO)[C@@H]2Cn3c(cccc3=O)[C@@H]2N1C(=O)C1CCC1,8,3
CCCN1[C@@H]2c3ccc(C4=CCCCC4)c(=O)n3C[C@@H]2[C@@H](CO)[C@@H]1C(=O)NC1Cc2ccccc2C1,-20,-7
C[C@H](O)C#Cc1ccc2c(c1)O[C@@H](CN(C)Cc1cccnc1)[C@@H](C)CN([C@@H](C)CO)S2(=O)=O,8,9
O=C(C[C@H]1CC[C@H]2NC[C@H](O)COC[C@@H]2O1)NCCc1ccccc1,-9,-4
O=C1CNC[C@@H]2[C@@H](c3ccc(Br)cc3)[C@H](CO)N12,-6,-2
C[C@@H]1CCCCO[C@@H](CN(C)S(=O)(=O)c2ccccc2)[C@H](C)CN([C@@H](C)CO)C(=O)c2cc(NS(=O)(=O)c3ccc(F)cc3)ccc2O1,?,.
Cc1ccc(S(=O)(=O)N(C)C[C@H]2Oc3c(NC(=O)C4CC4)cccc3C(=O)N([C@@H](C)CO)C[C@@H]2C)cc1,5,7
Cc1noc(C)c1S(=O)(=O)Nc1cccc2c1O[C@H](CN(C)S(=O)(=O)c1cccs1)[C@H](C)CN([C@@H](C)CO)C2=O,13,11
C[C@@H]1CN([C@@H](C)CO)C(=O)c2cc(-c3cncnc3)cnc2O[C@H]1CN(C)C(=O)Cc1cccnc1,26,10
C[C@H]1CN([C@@H](C)CO)C(=O)Cc2cc(NC(=O)Nc3ccc4c(c3)OCO4)ccc2O[C@@H]1CN(C)S(=O)(=O)c1ccc(F)cc1,11,8
O=C(NC1CCCC1)[C@@H]1[C@@H](CO)[C@@H]2Cn3c(cccc3=O)[C@@H]2N1CCc1ccccc1,-17,-26
COc1ccc(S(=O)(=O)N(C)C[C@@H]2OCCCC[C@@H](C)Oc3ccc(NS(C)(=O)=O)cc3C(=O)N([C@@H](C)CO)C[C@H]2C)cc1,21,9
C/C=C/c1ccc([C@@H]2[C@@H](CO)N(C(=O)CC3CC3)C23CN(S(C)(=O)=O)C3)cc1,-3,6
O=C(C[C@H]1CC[C@H]2[C@@H](COC[C@@H](O)CN2C(=O)c2ccccc2)O1)N1CCOCC1,-2,1
CO[C@H]1CN(C)C(=O)c2cc(NC(=O)c3ccc4c(c3)OCO4)ccc2OC[C@@H](C)N(CCC(F)(F)F)C[C@@H]1C,-9,-7
COCC#Cc1ccc2c(c1)O[C@H](CN(C)C(=O)Nc1ccc(OC)cc1)[C@H](C)CN([C@H](C)CO)S2(=O)=O,-2,-9
C[C@H](CO)N1C[C@H](C)[C@@H](CN(C)C(=O)c2ccccc2)OCCCC[C@H](C)Oc2ccc(NC(=O)Nc3cccc4ccccc34)cc2C1=O,20,9

# Source: PubChem

# This is a subset; rates above refer to the full screens.
